# Screens deposited in PubChem BioAssay by ICCB-Longwood Screening Facility, Harvard Medical School.
# Ecoli growth = E. coli growth inhibition, primary screen, OD600. Escherichia coli growth, 23 h; stronger effect = lower value. OD600 absorbance (concentration not given with the values). 0.21% of 330,000 active. AID 1053175, 2014;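 active means OD600 absorbance below the run mean of sample wells minus 3.6 SD, in any replicate, cut at about 0.56 in these data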;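 further: stock transfer was 300 nL into about 60 µL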
# UCH37 inh = inhibitors of human UCH37 deubiquitinase, primary screen, biochemical, Ub-AMC cleavage, fluorescence | 0.33% of 330,000 active | inhibition, % (concentration not given with the values) | AID 588478, 2011 | purified proteasome/UCH37 | Ubiquitin carboxyl-terminal hydrolase isozyme L5 (Homo sapiens), Q9Y5K5;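 active means mean of two replicates above 20%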;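 further: 0% = compound-free wells with enzyme and 100% = wells lacking proteasome; stock transfer was 100 nL into about 20 µL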
# Target sequence (Q9Y5K5 whole entry, looked up): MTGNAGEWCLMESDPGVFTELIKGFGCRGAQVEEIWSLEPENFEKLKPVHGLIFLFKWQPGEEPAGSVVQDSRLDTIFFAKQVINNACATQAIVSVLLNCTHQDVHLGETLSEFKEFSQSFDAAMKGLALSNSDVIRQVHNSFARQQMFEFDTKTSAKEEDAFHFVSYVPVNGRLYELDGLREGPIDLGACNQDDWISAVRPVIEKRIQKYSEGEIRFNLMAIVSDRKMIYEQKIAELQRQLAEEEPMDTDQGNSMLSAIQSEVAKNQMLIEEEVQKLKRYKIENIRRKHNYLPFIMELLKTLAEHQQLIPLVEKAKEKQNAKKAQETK
#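 Material: Human UCH37 enzyme supplied as purified proteasome complex | Schedule: 30 min preincubation with enzyme, 25 min cleavage at room temperature | Detection: AMC fluorescence 355/460 nm | Measure: % inhibition of Ub-AMC cleavage fluorescence | Controls: Wells without proteasome as full block, compound-free enzyme plus substrate as uninhibited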
# Active calls of the source: *. Some of the compounds tested (hit frequency here may not be typical).
compound	UCH37 inh	Ecoli growth
CC(=NNc1nc(-c2ccc(C)cc2C)cs1)c1cc2ccccc2oc1=O	2.4	0.68
COc1ccc(C=NNC(=O)c2ccccc2OCc2ccccc2)c(OC)c1	-4.4	0.67
CC1CCCC(=NNC(=S)NCc2ccccc2)C1 (stereo not given)	2.9	0.7
O=C(NN=Cc1ccc(O)c([N+](=O)[O-])c1)c1ccncc1	20*	0.63
COc1cccc(C=c2sc(=CC(=O)C(C)(C)C)[nH]c2=O)c1	1.5	0.72
Cc1nn(-c2ccccc2)c(N2CCCC2)c1C=NNC(=O)c1cc(-c2ccccn2)nc2ccccc12	8.7	0.76
C=CCc1cccc(C=Nn2cnnc2)c1O	2.3	0.62
COc1ccccc1/C=C/C(=O)NCC(=O)NN=C(C)c1ccc(Cl)cc1	-13	0.71
ON=Cc1ccnc(SCc2ccc(Cl)cc2)n1	3.8	0.68
O=[N+]([O-])c1ccccc1NN=C1CCc2ccccc21	3.8	0.72
COc1ccc(C=NN2CCN(C3c4ccccc4-c4ccccc43)CC2)cc1OC	6.9	0.74
O=C(O)c1ccc(C=NNC(=O)c2ccc(CN3c4cccc5cccc(c45)S3(=O)=O)cc2)cc1	-91	0.66
CC(CC(=O)Nc1ccc([N+](=O)[O-])cc1)=NNC(=O)c1ccccc1O	4.9	0.66
COc1cc2c(-c3ccccc3)c(C)oc2cc1C=NNC(N)=S	-39	0.66
Cc1cccc(CC2SC(=NN=Cc3ccco3)N(c3ccccc3)C2=O)c1 (stereo not given)	4.4	0.75
CCOC(=O)NC(=O)C(C#N)=NNc1c(F)cccc1F	11	0.69
Cn1cccc1C=NNC(=O)c1ccccn1	14	0.71
CC(CC(=O)Nc1ccc(N(C)C)cc1)=NNC(=O)c1ccc(Cl)cc1	5.1	0.69
CC(CC(=O)Nc1cc(C)ccn1)=NNC(=O)c1ccncc1	2.1	0.71
O=C(CN1C(=O)CSc2ccccc21)NN=Cc1ccco1	1.8	0.66
CC(=NNC(=O)c1c(C)nc2ccccn12)c1ccc(N2CCOCC2)cc1	2.1	0.72
CS(=O)(=O)N(CC(=O)NN=Cc1ccccn1)c1ccc(Oc2ccccc2)cc1	1.3	0.63
Cc1ccc(C=NNC(=O)c2c[nH]c3ccccc23)o1	8.5	0.71
O=[N+]([O-])c1ccc(O)c(C=NNc2ccccc2[N+](=O)[O-])c1	-1.2	0.68
NC(=S)NN=C1CCOc2ccc(Cl)cc21	9.9	0.65
Cc1nn(-c2ccccc2)c(C)c1C=Nn1cnnc1	0.3	0.62
CCCc1c(C(=O)NN=C/C(C)=C/c2ccccc2)nnn1-c1nonc1N	3.8	0.69
CC(CC(=O)NCCCN1CCOCC1)=NNC(=O)COc1cccc2ccccc12	1.8	0.62
Cc1ccc(C)c(S(=O)(=O)NN=Cc2ccc(N3CCOCC3)cc2)c1	7.7	0.66
CCC(=NO)c1ccc(OC)c(OC)c1	5.4	0.78
Cn1cccc1CC(=O)NN=Cc1ccc(C(C)(C)C)cc1	3.8	0.65
S=C(NCCc1ccccc1)NN=Cc1cccc(Cl)c1Cl	5.5	0.7
O=C(O)c1cc(NN=Cc2ccncc2)ccc1Cl	14	0.67
CCn1c(SCC(=O)NN=C(C)c2ccncc2)nc2ccccc21	0.5	0.67
Cc1ccccc1N(CC(=O)NN=Cc1ccccc1Cl)C(=O)c1ccccc1	0.8	0.7
COc1cc(C=NNC2=NS(=O)(=O)c3ccccc32)ccc1OC(C)=O	14	0.65

# Shown with values under each structure: part of the list above.
# Values run as follows: UCH37 inh, Ecoli growth
CC(CC(=O)Nc1ccc([N+](=O)[O-])cc1)=NNC(=O)c1ccccc1O
  4.9, 0.66
COc1cc2c(-c3ccccc3)c(C)oc2cc1C=NNC(N)=S
  -39, 0.66

# Going on with the list:
compound	UCH37 inh	Ecoli growth
Cc1ccc(NC2=CC(=NS(=O)(=O)c3cccs3)c3ccccc3C2=O)cc1	22*	0.76
Cc1[nH]c2ccccc2c1C=NNc1nc(Nc2ccccc2)nc(N2CCOCC2)n1	2.4	0.67
COc1cc(C=NNC(=O)NC23CC4CC(CC(C4)C2)C3)ccc1O	3.8	0.69
Cc1cc(C(=O)NN=Cc2c(C)nn(-c3ccccc3)c2C)n[nH]1	3.9	0.69
O=C(NN=Cc1ccc2c(c1)OCO2)C(=O)N1CCCC1	7.3	0.67
COC(=O)c1sccc1NN=Cc1ccc(OC)c(OC)c1OC	-23	0.62
CC(=NNC(=O)c1cccnc1)C1=C(O)CC(C)(C)CC1=O	2.6	0.68
CON=C(CS(=O)Cc1ccccc1Cl)c1ccc(Cl)cc1Cl (stereo not given)	3.0	0.7
CC(=O)Nc1ccc(C(=O)NN=Cc2ccccc2OC(=O)c2ccc(Cl)cc2)cc1	-5.0	0.68
COc1cccc(C=NNC(=O)C[n+]2ccccc2)c1OC	-1.8	0.7
O=C(NN=Cc1cccnc1)c1ccc(CN2c3cccc4cccc(c34)S2(=O)=O)cc1	-42	0.69
CCOc1cc(C=NNC(=O)CC(=O)NCCc2ccccc2)ccc1O	-6.0	0.65
C[n+]1cn(N=Cc2ccccc2)c2ccccc21	0.4	0.71
CC1CCCC(C)N1C(=O)c1cccc2c1-c1ccccc1C2=NO (stereo not given)	1.8	0.77
COc1cc(C=NNC(=O)c2cccc(S(=O)(=O)N3CCCCC3)c2)cc(Br)c1O	-0.5	0.65
O=C(NN=Cc1cc(Br)ccc1O)C(=O)Nc1ccccc1OC(F)(F)C(F)F	4.5	0.74
CCN(CC)c1ccc(C=NN2CCN(Cc3ccccc3Cl)CC2)c(O)c1	5.5	0.71
CC(=NNc1ccc(C(F)(F)F)cc1[N+](=O)[O-])C1CC1	2.1	0.73
COc1ccc(CN2C(=O)c3ccccc3C(C=NOCc3ccc(C)cc3)C2=O)cc1 (stereo not given)	-27	0.73
O=C(CN1CCN(Cc2ccc(Cl)cc2)CC1)NN=Cc1ccncc1	6.2	0.69
COc1ccc(C=Nn2c(C)nnc2C)c(OC)c1	-1.3	0.76
CC(=NN1CCN(Cc2ccccc2)CC1)c1ccc(Br)cc1	2.0	0.64
CCCC(=NNC(=O)c1ccc(OC)c(OC)c1)c1ccccc1	-0.2	0.66
C=CCn1c(=C(C#N)C(=O)c2ccccc2)sc(=Cc2ccc(C)o2)c1=O	3.5	0.71
COc1ccc(C(C)=NNC(=O)c2nnn(-c3nonc3N)c2-c2cccs2)cc1OC	-364	0.7
COc1ccc(Cc2nnc(NN=Cc3ccccc3O)[nH]c2=O)cc1OC	4.8	0.64
CCOC(=O)C(=NNc1ccccc1)c1csc(Nc2ccc(C)cc2)n1	7.9	0.73
Cc1ccc(C=NNC(=O)CCCOc2ccc(Cl)cc2Cl)cc1	3.2	0.71
Cc1nccn1CC(=O)NN=Cc1cccc(O)c1	0.5	0.66
CCOC(=O)C(=NNc1ccc(OC)cc1)c1csc(Nc2ccccc2)n1	1.4	0.71
S=C(NCCN1CCOCC1)NN=Cc1cccs1	14	0.6
O=C(Cc1ccc([N+](=O)[O-])cc1)NN=Cc1ccco1	1.3	0.67
CC1(C)CC(=O)CC(=NNC(=O)COc2ccc(Cl)cc2Cl)C1	0.1	0.68
CCOc1cc(C=NNC(=O)c2ccc3c(c2)OCCO3)cc(Br)c1O	7.6	0.68
Cc1cc(-c2n[nH]c(=S)n2N=Cc2sccc2C)n[nH]1	5.2	0.66
COc1cc(C=NN2C(=O)CSC2=S)ccc1O	12	0.65

# A different layout for some results above:
COc1ccc(Cc2nnc(NN=Cc3ccccc3O)[nH]c2=O)cc1OC
  UCH37 inh = 4.8	Ecoli growth = 0.64

S=C(NCCN1CCOCC1)NN=Cc1cccs1
  UCH37 inh = 14	Ecoli growth = 0.6

CCOC(=O)C(=NNc1ccccc1)c1csc(Nc2ccc(C)cc2)n1
  UCH37 inh = 7.9	Ecoli growth = 0.73

CCOc1cc(C=NNC(=O)c2ccc3c(c2)OCCO3)cc(Br)c1O
  UCH37 inh = 7.6	Ecoli growth = 0.68

# The results go on:
compound	UCH37 inh	Ecoli growth
O=C(NN=Cc1cccn1-c1ccc([N+](=O)[O-])cc1)C(O)c1ccccc1 (stereo not given)	11	0.73
Cc1ccc(C(=O)Nc2cccc(C(=O)NN=Cc3ccc(F)cc3)c2)cc1	7.7	0.66
O=C(CC12CC3CC(CC(C3)C1)C2)NN=Cc1ccc[nH]1	3.7	0.68
COc1ccc(CC(C)=NNC(=S)Nc2ccccc2)cc1	4.3	0.71
O=C(CNC(=O)c1ccc2c(c1)OCCO2)NN=Cc1ccc(O)cc1O	-7.5	0.67
COc1cccc(C=Nc2nc3ccccc3[nH]2)c1O	2.6	0.7
Cc1ccc(S(=O)(=O)N=C(CSC(N)=O)Nc2ccccc2)cc1	2.5	0.72
NC(=O)NN=Cc1sc(N2CCCCC2)nc1-c1cccs1	3.4	0.68
Cc1onc(-c2c(Cl)cccc2Cl)c1CON=C(C#N)c1c(Cl)cccc1Cl	0.7	0.66
COCc1c(C(=O)NN=Cc2cccc3ccccc23)nnn1-c1nonc1N	-69	0.67
COc1cccc(-c2c(C(=O)NN=C(C)c3ccco3)nnn2-c2nonc2N)c1	-4.9	0.72
CCOc1cc(C=NNS(=O)(=O)c2ccc(OC)cc2)ccc1OCCN1CCOCC1	3.9	0.67

# In a second layout: entries from further up
> Cc1onc(-c2c(Cl)cccc2Cl)c1CON=C(C#N)c1c(Cl)cccc1Cl
  UCH37 inh: 0.7; Ecoli growth: 0.66
> COc1cccc(C=Nc2nc3ccccc3[nH]2)c1O
  UCH37 inh: 2.6; Ecoli growth: 0.7
> CCOc1cc(C=NNS(=O)(=O)c2ccc(OC)cc2)ccc1OCCN1CCOCC1
  UCH37 inh: 3.9; Ecoli growth: 0.67

# (listing goes on)
compound	UCH37 inh	Ecoli growth
O=[N+]([O-])c1ccc(NN=Cc2ccc(O)c(O)c2O)c(S(=O)(=O)N2CCOCC2)c1	3.3	0.74
CC(C)(C)c1csc(NN=Cc2ccc(O)cc2)n1	-3.6	0.68
CNC(=O)N(O)C1N(N=Cc2ccccc2F)C(=S)SC1(C)C (stereo not given)	6.8	0.64
COc1cc(C=NNC(=O)c2cccnc2)cc(Br)c1O	17	0.69
CCCN(CCC)Cc1c(C(=O)NN=C/C(C)=C\c2ccco2)nnn1-c1nonc1N	6.1	0.66
CC(C)Oc1ccc(CCC(=O)NN=Cc2ccncc2)cc1	1.1	0.7
Cc1ccccc1COc1cccc(C=NNC(=O)c2nnn(-c3nonc3N)c2C)c1	4.7	0.68
COc1ccc(C=NNC(=O)c2ccc(Br)cc2)c(OC)c1	-4.5	0.68
CCCCC(C)=NNC(=O)CNS(=O)(=O)c1ccc([N+](=O)[O-])cc1	0.3	0.75
CCn1c(SCC(=O)NN=Cc2ccccc2OCC(=O)O)nnc1-c1ccc(C(C)(C)C)cc1	0.9	0.74
COc1cc([N+](=O)[O-])cc(C=NNC(=O)Cn2cncn2)c1O	15	0.64
CCOC(=O)c1c(N=Cc2ccccc2O)sc2c1CCC2	6.7	0.66
CC(=NNC(=O)c1cnccn1)c1cccs1	8.6	0.69
O=C(NN=CCCc1ccccc1)c1ccc(CN2c3cccc4cccc(c34)S2(=O)=O)cc1	-111	0.69
COc1ccc(C=NNC(=O)CCn2c3ccccc3c3ccccc32)cc1O	1.9	0.73
CC(Cn1nnc([N+](=O)[O-])n1)=NNC(=O)c1cccc(Cl)c1	2.0	0.71
O=C(COc1ccccc1C(=O)NN=Cc1ccc(O)c(O)c1)NN=Cc1ccc(O)c(O)c1	2.0	0.68
CCc1cc(C(Cc2cscn2)=NO)c(O)cc1O	2.7	0.73
Cc1ccc(OCC(=O)NN=Cc2cccs2)c([N+](=O)[O-])c1	0.9	0.64
O=C(NN=Cc1cn[nH]c1-c1ccccc1)c1cccnc1	1.2	0.68
CC(=NNC(=O)CCCNc1cccc(C)c1)c1ccncc1	2.2	0.63
COc1ccc(N2CC(C(=O)NN=Cc3ccccc3)CC2=O)cc1 (stereo not given)	1.5	0.63
Cc1ccc(C(=O)NN=Cc2ccc(-c3ccc(Cl)cc3)o2)cn1	-13	0.66
COc1ccccc1C=NNC(=Nc1ccc(C)cc1)c1nc2ccccc2s1	8.7	0.68
COc1cc(C=NNc2ccc(C)cc2)cc(Br)c1O	2.3	0.68
Cc1nc(C(F)(F)F)c(C(=O)NN=C(N)c2cccnc2)s1	5.2	0.73
CC(C)(C)OC(=O)N1CCC[C@H]1C(=O)NN=Cc1ccc2nccnc2c1	4.1	0.65
N#Cc1c(Sc2ncc(C(F)(F)F)cc2Cl)nsc1CC=NOCc1c(F)cccc1Cl	-3.6	0.7
CCOc1ccccc1N(CC(=O)NN=Cc1cc(Br)ccc1OC)S(C)(=O)=O	3.4	0.7
